Assay outcomes as filed in PubChem.
Vaccinia stage = blocks a specific stage of Vaccinia orthopoxvirus infection, primary screen, cell-based, single point. Vaccinia-infected cells, mCherry/Venus stage reporter fluorescence; stronger effect = lower value; some inactives read as strong as hits. activity change (mCherry), % (no concentration beside the values). 0.01% of 89,000 active;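 active = mCherry past -33% and 40 or more points under the early reporter, replicates agreeing; inconclusive = past -33% without that gap or agreement; tested in A549 cells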;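 note: scaled between vehicle wells and reference inhibitor wells; 23 nL library stock went into each well; one replicate is shown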
Vaccinia stage Venus = second read-out of Vaccinia stage, no call of its own (marks repeat the call); activity change (Venus), %; measured here: Venus reporter, other viral stage;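 negative = less Venus signal; first of two replicates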
The depositor's hits bear a star; ? = inconclusive; · = not tested or not shown. This is a subset (hit frequency here may not be typical).

SMILES	Vaccinia stage	Vaccinia stage Venus
COc1ccc(CN(C)C[C@H]2Oc3ccc(NC(=O)Nc4cccc5ccccc45)cc3C(=O)N([C@@H](C)CO)C[C@@H]2C)cc1	-15	-13
O=C(C[C@@H]1C[C@@H]2c3cc(NC(=O)NC4CCCC4)ccc3O[C@@H]2[C@H](CO)O1)NCc1ccc(Oc2ccccc2)cc1	-5	-6
C[C@H](CO)N1C[C@H](C)[C@@H](CN(C)Cc2ccc(C(=O)O)cc2)Oc2ccc(NS(=O)(=O)c3cn(C)cn3)cc2CC1=O	13	6
COCC(=O)N1CCCCN2[C@H](CO)[C@H](c3ccc(-c4ccccc4)cc3)[C@@H]2C1	32	11
Cc1ccc(S(=O)(=O)N(C)C[C@@H]2Oc3cc(-c4cccc(F)c4)ccc3S(=O)(=O)N([C@@H](C)CO)C[C@H]2C)cc1	-18	-27
COc1ccc(C#Cc2ccc3c(c2)[C@H]2[C@H](CCN2C(=O)C2CCC2)[C@H](CO)N3)cc1	-13	-8
CC=Cc1ccc2n(c1=O)C[C@H]1[C@H](CO)[C@@H](C(=O)NCc3ccccc3)N(Cc3cncnc3)[C@@H]21 (mixture of isomers)	17	20
CC(C)NC(=O)N(C)C[C@@H]1Oc2cc(-c3cncnc3)ccc2S(=O)(=O)N([C@H](C)CO)C[C@@H]1C	22	14
C[C@@H]1CN([C@@H](C)CO)C(=O)c2cccc(NC(=O)Nc3ccc(C(F)(F)F)cc3)c2O[C@@H]1CN(C)CC1CC1	?	·
C[C@@H]1CCCCO[C@@H](CN(C)C(=O)Nc2ccccc2)[C@H](C)CN([C@@H](C)CO)C(=O)c2cc(N(C)C)ccc2O1	-7	1
CN1c2ccc(-c3ccc(C#N)cc3)cc2[C@H]2[C@H](CCN2S(=O)(=O)c2ccc(F)cc2)[C@@H]1CO	-2	-13
CO[C@@H]1CN(C)C(=O)c2cc(NC(=O)CN(C)C)ccc2OC[C@@H](C)N(C(=O)C2CC2)C[C@H]1C	22	21
C/C=C/c1cnc2c(c1)C(=O)N([C@@H](C)CO)C[C@H](C)[C@H](CN(C)C(=O)NCCC)O2	9	-3
CCC(=O)NC[C@H]1[C@H](c2ccccc2)[C@H](CO)N1C(=O)C1CC1	9	19
CCC(=O)N(C)C[C@@H]1Oc2ncc(/C=C/c3ccccc3)cc2C(=O)N([C@@H](C)CO)C[C@H]1C	12	1
CCCNC(=O)N1CC(=O)N2[C@H](CO)[C@@H](c3ccc(-c4ccc(C)cc4)cc3)[C@H]2C1	?	·
CCCC#Cc1ccc2c(c1)O[C@H](CN(C)C(=O)c1ccncc1)[C@@H](C)CN([C@H](C)CO)S2(=O)=O	-4	-1
CCCN(C)C[C@@H]1Oc2cc(C#C[C@H](C)O)ccc2S(=O)(=O)N([C@H](C)CO)C[C@@H]1C	9	7
CCC(=O)N[C@@H]1C=C[C@H](CC(=O)NCC2CC2)O[C@H]1CO	12	11
OC[C@H]1[C@H](c2ccc(-c3cccnc3)cc2)[C@H]2CN(CC3CCOCC3)CCCCN21	14	2
O=C(C[C@H]1C=C[C@H](NC(=O)C2CCC2)[C@H](CO)O1)NCc1ccccc1Cl	7	5
C/C=C/c1ccc([C@@H]2[C@H](CO)N[C@H]2CN(CC(C)C)C(=O)c2ccccn2)cc1	-20	-10
C[C@@H]1CN([C@H](C)CO)S(=O)(=O)c2ccc(C#Cc3ccncc3)cc2O[C@@H]1CN(C)C(=O)C1CC1	6	6
CO[C@H]1CN(C)C(=O)c2cc(NC(=O)Nc3ccc4c(c3)OCO4)ccc2OC[C@H](C)NC[C@@H]1C	7	1
Cc1noc(C)c1S(=O)(=O)N(C)C[C@@H]1Oc2ccc(NC(=O)Cn3cnnn3)cc2CC(=O)N([C@@H](C)CO)C[C@@H]1C	14	7
O=C(C[C@@H]1CC[C@H](NC(=O)C2CCOCC2)[C@@H](CO)O1)NCc1ccncc1	5	-1
CN1C(=O)c2cc(NC(=O)c3ccccc3Cl)ccc2OC[C@@H]2O[C@@H](CC(=O)O)CC[C@H]21	1	5
CO[C@H]1CN(C)C(=O)c2ccc(NC(=O)c3cnccn3)cc2OC[C@@H](C)N(CCc2ccccc2)C[C@@H]1C	1	-1
Cc1ccc(S(=O)(=O)N(C)C[C@H]2OCCCC[C@H](C)Oc3ccc(NC(=O)Nc4ccc(C(F)(F)F)cc4)cc3C(=O)N([C@H](C)CO)C[C@@H]2C)cc1	-17	-4
CO[C@H](CN(C)C(=O)c1cnccn1)[C@@H](C)CN([C@H](C)CO)S(=O)(=O)c1ccc(F)cc1	21	13
CC(=O)N(C)C[C@@H]1[C@H](c2ccc(-c3ccccc3F)cc2)[C@H](CO)N1C(C)=O	7	8
COCC#Cc1cnc2c(c1)C(=O)N([C@@H](C)CO)C[C@@H](C)[C@H](CN(C)S(C)(=O)=O)O2	14	6
COCC(=O)N1CC2(C1)[C@H](c1ccccc1)[C@H](CO)N2Cc1ccccc1OC	7	7
COCC(=O)N1[C@H](CO)[C@@H](c2ccccc2)[C@H]1CN(C)C(=O)c1ccncc1	14	13
C[C@@H]1CN([C@H](C)CO)S(=O)(=O)c2ccc(C#CC3(O)CCCC3)cc2O[C@H]1CN(C)C(=O)Nc1ccccc1	-7	-2
CC(C)NC(=O)N[C@H]1CC[C@@H](CCNC(=O)C2CC2)O[C@H]1CO	16	18
CCCNC(=O)C[C@H]1C[C@@H]2c3cc(NC(=O)C4CCC4)ccc3O[C@@H]2[C@@H](CO)O1	13	5
COC(=O)C1=C2CC[C@H](CO)NC(=O)N[C@H](Cc3ccccc3)C(=O)NCc3cn(nn3)C[C@H](Cc3ccccc3)NC(=O)c3oc(c(C(=O)OC)c3C(=O)OC)CC[C@H](CO)NC(=O)N[C@H](Cc3ccccc3)C(=O)NCc3cn(nn3)C[C@H](Cc3ccccc3)NC(=O)C(=C1C(=O)OC)O2	13	17
C[C@H]1CN([C@@H](C)CO)C(=O)Cc2cc(NC(=O)Nc3ccc(C(F)(F)F)cc3)ccc2O[C@H]1CN(C)C(=O)Nc1ccc2c(c1)OCO2	-3	-10
COc1ccc(-c2ccccc2[C@H]2[C@@H](C#N)N(C(=O)C3CCCC3)[C@H]2CO)cc1	-11	-8
CO[C@H]1CN(C)C(=O)c2ccc(NC(=O)Nc3c(C)noc3C)cc2OC[C@H](C)N(CC2CC2)C[C@H]1C	7	11
C[C@@H]1CCCCO[C@H](CN(C)C(=O)C2CCCCC2)[C@@H](C)CN([C@@H](C)CO)C(=O)c2cc(NS(=O)(=O)c3cccs3)ccc2O1	-29	-19
CO[C@@H]1CN(C)C(=O)c2ccc(NC(=O)C3CCOCC3)cc2OC[C@@H](C)N(Cc2ccc(F)cc2)C[C@H]1C	-9	-1
C[C@@H]1CN([C@@H](C)CO)C(=O)c2cc(/C=C/c3ccccc3)cnc2O[C@H]1CN(C)S(=O)(=O)c1ccc(F)cc1	-16	-18
O=C(C[C@H]1CC[C@H]2[C@@H](COC[C@@H](O)CN2C(=O)Nc2cc(Cl)cc(Cl)c2)O1)NCC1CCCCC1	?	·
CCC(=O)Nc1ccc2c(c1)OC[C@@H](C)N(Cc1ccncc1)C[C@@H](C)[C@@H](OC)CN(C)C2=O	8	11
C[C@H](CO)N1C[C@H](C)[C@@H](CN(C)Cc2cccnc2)Oc2ncc(C#CCc3ccccc3)cc2C1=O	10	9
C[C@H](CO)N1C[C@H](C)[C@H](CN(C)Cc2ccncc2)OCCCC[C@H](C)Oc2ccc(N(C)C)cc2C1=O	0	4
COc1cccc(C#Cc2ccc([C@H]3[C@@H](CO)N4C(=O)CN(C(=O)C5CC5)C[C@@H]34)cc2)c1	4	-1
COc1ccccc1CNC(=O)C[C@@H]1C[C@H]2c3cc(NC(=O)Nc4ccccc4F)ccc3O[C@H]2[C@H](CO)O1	-1	2
Cc1ccc(S(=O)(=O)N(C)C[C@@H]2Oc3cc(C#CC4CCCC4)ccc3S(=O)(=O)N([C@H](C)CO)C[C@H]2C)cc1	-9	-10
CCCNC(=O)N1CC(=O)N2[C@H](C1)[C@@H](c1ccc(C#Cc3cccc(F)c3)cc1)[C@@H]2CO	?	·
COC(=O)C[C@@H]1C[C@@H]2c3cc(NC(=O)C4CCC4)ccc3O[C@@H]2[C@H](CO)O1	15	16
COc1ccc(CN(C)C[C@@H]2Oc3c(NC(=O)c4cc(C)nn4C)cccc3C(=O)N([C@H](C)CO)C[C@H]2C)cc1	-3	-2
C/C=C/c1ccc([C@H]2[C@@H](CO)N3C(=O)CN(C(=O)Cc4cccnc4)C[C@@H]23)cc1	7	5
COc1ccc(-c2ccccc2[C@H]2[C@@H](C#N)N(C(=O)C3CCC3)[C@@H]2CO)cc1	15	9
CN1[C@@H]2Cn3c(ccc(/C=C/c4ccccc4)c3=O)[C@H]1[C@@H](C(=O)NC1CCCC1)[C@@H]2CO	-13	-2
C[C@H]1CN([C@@H](C)CO)C(=O)Cc2cc(NC(=O)Cn3cnnn3)ccc2O[C@@H]1CN(C)CC1CCCCC1	-10	-19
CC(C)NC(=O)N1[C@H](CO)[C@H]2c3ccccc3N(C)C[C@H]21	10	6
O=C(C[C@H]1C[C@H]2c3cc(NC(=O)C4CCC4)ccc3O[C@H]2[C@@H](CO)O1)NCc1ccc(-c2ccccc2)cc1	6	13
Next part:
SMILES	Vaccinia stage	Vaccinia stage Venus
COc1ccc(CN(C)C[C@@H]2OCCCC[C@@H](C)Oc3ccc(NC(=O)Nc4ccc5c(c4)OCO5)cc3C(=O)N([C@@H](C)CO)C[C@H]2C)cc1	-28	-32
O=C(C[C@H]1CC[C@H]2[C@@H](COC[C@@H](O)CN2C(=O)Nc2ccccc2)O1)NCCCN1CCOCC1	11	6
C[C@@H]1CN([C@H](C)CO)C(=O)c2cc(NC(=O)C3CCCCC3)ccc2O[C@@H](C)CCCCO[C@H]1CN(C)S(=O)(=O)c1ccccc1	-18	-10
O=C(C[C@@H]1C[C@H]2c3cc(NC(=O)Nc4ccccc4F)ccc3O[C@H]2[C@H](CO)O1)NC1CCCCC1	?	·
Cc1noc(C)c1NC(=O)Nc1ccc2c(c1)C(=O)N([C@@H](C)CO)C[C@H](C)[C@@H](CN(C)Cc1ccc(C(=O)O)cc1)O2	17	2
C[C@H]1CN([C@@H](C)CO)S(=O)(=O)c2ccc(Br)cc2O[C@H]1CN(C)S(=O)(=O)c1ccccc1F	?	·
O=S(=O)(Cc1ccccc1)N1CCCCN2[C@H](C1)[C@H](c1ccc(-c3cncnc3)cc1)[C@@H]2CO	3	-1
COc1ccc2c3c([nH]c2c1)[C@H](CO)N(C(=O)c1ccccc1)CC31CCN(S(=O)(=O)c2cccs2)CC1	21	12
CCS(=O)(=O)N1CCCCN2[C@H](C1)[C@H](c1ccc(-c3cccc(C#N)c3)cc1)[C@@H]2CO	-3	-13
Cc1cccc(S(=O)(=O)N[C@@H]2CC[C@H](CCNC(=O)CCN3CCCCC3)O[C@H]2CO)c1	-9	-6
CCC(=O)N[C@@H]1CC[C@@H](CCNC(=O)Nc2ccc(F)cc2)O[C@H]1CO	17	20
COCC(=O)Nc1ccc2c(c1)OC[C@H](C)N(C(=O)c1cnccn1)C[C@H](C)[C@@H](OC)CN(C)C2=O	-2	-2
C[C@@H]1CCCCO[C@H](CN(C)Cc2ccncc2)[C@@H](C)CN([C@H](C)CO)C(=O)c2cc(NC(=O)Nc3ccc4c(c3)OCO4)ccc2O1	0	-8
CCCC(=O)Nc1ccc2c(c1)C(=O)N(C)[C@@H]1CC[C@@H](CC(=O)O)O[C@@H]1CO2	-4	-5
C[C@@H]1CN([C@H](C)CO)C(=O)c2cccc(NC(=O)Nc3ccc(C(F)(F)F)cc3)c2O[C@H]1CN(C)Cc1ccccc1	-13	-9
CNC[C@H]1Oc2ccc(NC(=O)CCC(F)(F)F)cc2C(=O)N([C@H](C)CO)C[C@H]1C	-11	-2
Cc1noc(C)c1S(=O)(=O)Nc1ccc2c(c1)CC(=O)N([C@H](C)CO)C[C@@H](C)[C@H](CN(C)S(=O)(=O)c1cccs1)O2	-4	1
CO[C@@H]1CN(C)C(=O)c2ccc(NC(=O)c3ccccc3)cc2OC[C@H](C)N(C(C)=O)C[C@@H]1C	10	2
COc1ccc(S(=O)(=O)Nc2ccc3c(c2)CC(=O)N([C@@H](C)CO)C[C@H](C)[C@@H](CN(C)S(=O)(=O)c2cccs2)O3)cc1	15	-1

Compounds from the list above that contain an aryl methoxy group, in the order listed:
SMILES	Vaccinia stage	Vaccinia stage Venus
COc1ccc(CN(C)C[C@H]2Oc3ccc(NC(=O)Nc4cccc5ccccc45)cc3C(=O)N([C@@H](C)CO)C[C@@H]2C)cc1	-15	-13
COc1ccc(C#Cc2ccc3c(c2)[C@H]2[C@H](CCN2C(=O)C2CCC2)[C@H](CO)N3)cc1	-13	-8
COCC(=O)N1CC2(C1)[C@H](c1ccccc1)[C@H](CO)N2Cc1ccccc1OC	7	7
COc1ccc(-c2ccccc2[C@H]2[C@@H](C#N)N(C(=O)C3CCCC3)[C@H]2CO)cc1	-11	-8
COc1cccc(C#Cc2ccc([C@H]3[C@@H](CO)N4C(=O)CN(C(=O)C5CC5)C[C@@H]34)cc2)c1	4	-1
COc1ccccc1CNC(=O)C[C@@H]1C[C@H]2c3cc(NC(=O)Nc4ccccc4F)ccc3O[C@H]2[C@H](CO)O1	-1	2
COc1ccc(CN(C)C[C@@H]2Oc3c(NC(=O)c4cc(C)nn4C)cccc3C(=O)N([C@H](C)CO)C[C@H]2C)cc1	-3	-2
COc1ccc(-c2ccccc2[C@H]2[C@@H](C#N)N(C(=O)C3CCC3)[C@@H]2CO)cc1	15	9
COc1ccc(CN(C)C[C@@H]2OCCCC[C@@H](C)Oc3ccc(NC(=O)Nc4ccc5c(c4)OCO5)cc3C(=O)N([C@@H](C)CO)C[C@H]2C)cc1	-28	-32
COc1ccc2c3c([nH]c2c1)[C@H](CO)N(C(=O)c1ccccc1)CC31CCN(S(=O)(=O)c2cccs2)CC1	21	12
COc1ccc(S(=O)(=O)Nc2ccc3c(c2)CC(=O)N([C@@H](C)CO)C[C@H](C)[C@@H](CN(C)S(=O)(=O)c2cccs2)O3)cc1	15	-1
